Rango dissoc inh = inhibition of RanGTP-driven Rango-importin beta dissociation. Biochemical FRET Rango-importin beta, RanGTP-induced dissociation. Potency, µM (doses to about 46.1 µM), for inactives: at the top dose activity change, negative = inhibition. actives 0.071% (n = 340,000). O95149+P62826; active means falling FRET ratio curve, often poorly fitted, with flat reads before Ran was added; inconclusive means other falling curves, or compound fluorescence or quenching; inactive means flat or rising ratio curve;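 further: potency means the concentration at half of the fitted maximal effect; % of control where 0% means no effect; nearly all actives have a fitted effect of over 45% in size; -100% = wells without RanGTP and RCC1; the record marks most hits as doubtful in a second field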
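Rango/importin beta premix (0.1/0.25 uM final), PBS + 1 mM DTT + 0.02% Tween-20 + 0.1% BSA; cpd 5 min RT; FRET pre-read; + RanGTP-RCC1 (0.6 uM Ran, 2 mM GTP, 0.2 uM RCC1); 45 min RT; FRET post-read, ex 430, em 486/530 nm.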
GLA inh pH 4.5 = inhibitors of human alpha-galactosidase A at pH 4.5 | P06280 | purified enzyme, 4-MU-alpha-Gal fluorescence, pH 4.5 | activity change, negative = inhibition, % at 105 µM | 230,000 tested, under 10 active | AID 1467; inconclusive = small, poorly fitted or top-dose-only inhibition, or a rising curve; inactive = flat fitted curve, though single readings scatter; no compound was filed as active;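 further: 0% = full activity with enzyme and -100% = basal without enzyme; dose as in the result columns while the protocol names 77 µM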
Target sequence (P06280 whole entry, looked up): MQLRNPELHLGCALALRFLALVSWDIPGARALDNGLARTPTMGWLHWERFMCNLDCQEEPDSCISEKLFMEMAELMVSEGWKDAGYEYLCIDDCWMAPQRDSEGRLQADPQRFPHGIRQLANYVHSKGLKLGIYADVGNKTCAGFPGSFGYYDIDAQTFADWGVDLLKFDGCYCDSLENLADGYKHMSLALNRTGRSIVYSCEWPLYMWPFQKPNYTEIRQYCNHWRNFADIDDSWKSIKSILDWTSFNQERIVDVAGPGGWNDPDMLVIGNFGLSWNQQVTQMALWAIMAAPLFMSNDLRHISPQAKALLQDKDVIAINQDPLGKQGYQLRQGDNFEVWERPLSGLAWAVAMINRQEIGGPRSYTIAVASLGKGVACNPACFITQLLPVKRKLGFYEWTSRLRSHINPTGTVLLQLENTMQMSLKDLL
miR-21 FLuc = raises the signal of a miR-21 reporter; HeLa miR-21 FLuc reporter, luciferase, 48 h; Potency, µM (doses to about 38.3 µM), for the others: at the top dose reporter change, positive = more light; 340,000 tested, under 10 active; active = well fitted rising curve with a large enough effect; inconclusive = small, poorly fitted or top-dose-only effect; inactive = no such curve, though single readings can be large or run the other way;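 further: % of control where 0% means no effect; miR-21 action dims this reporter so a rising signal means less miR-21 action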
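Luminescence from a firefly luciferase reporter carrying a miR-21 binding site downstream, stably expressed under a CMV promoter in HeLa cells that make miR-21 endogenously, reports miRNA modulation after 48 h compound exposure up to approximately 40uM final.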
Rango-impB inh = inhibitors of Rango-importin beta complex formation; Rango CFP/YFP FRET sensor + importin beta, 45 min; Potency, µM (series often up to 92.2 µM), without a hit: top-dose inhibition of complex formation; actives 0.031% (n = 340,000); active = rising FRET ratio curve, often small or poorly fitted; inconclusive = mostly compound fluorescence or quenching in the first reads; inactive = flat curves in all reads;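 further: potency means the concentration at half of the fitted maximal effect; 0% = DMSO wells and 100% = buffer wells lacking importin beta; nearly all actives have a fitted effect of over 15% in size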
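FRET biosensor (snurportin 1 IBB flanked by EYFP and cerulean), 50 nM, with compound 5 min, then 0.125 microM importin beta in PBS, 1 mM DTT, 0.02% Tween-20, 0.1% BSA. CFP/YFP ratio read after 45 min at room temperature; pre-read flags interference.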
* marks the source's active call; other numbers are inactive results; ? = inconclusive; / = no result given; & = joins results of further samples.

SMILES | Rango dissoc inh | GLA inh pH 4.5 | miR-21 FLuc | Rango-impB inh
CCCN(CC(=O)Nc1ccccc1OC)C(=O)C1CCCC1 | -4.1% | / | / | -3.9%
O=C(Nc1ccncc1)C1CC(=O)N(c2ccc(F)cc2)C1 (centres undefined) | -8.5% | / | 3.5% | -1.8%
CC(C)NC(=O)NC(=O)CSc1nncn1C | 18.4% | 3.0 | 2.2% | ?
O=C(CCCSc1nnc(Nc2ccccc2F)s1)N1CCOCC1 | 27.4% | 5.4 | -33.9% | 1.0%
CN(C)/C=C1/C=C(c2ccccc2)OC1=O | -9.4% | -7.0 | -13.5% | -0.1%
CCOC(=O)/C(=C\C=C1/Sc2cc(OCC)c(OCC)cc2N1CC)C(C)=O | ? | -10.5 | -14.9% | ?
CCOC(=O)C(C(=O)OCC)C(C)C#CCN1CCCCC1 (centres undefined) | 8.3% | 2.8 | -4.6% | -2.9%
CCN1C(=O)CC(C(=O)Nc2ccc(F)cc2)SC1=Nc1ccc2c(c1)OCO2 (centres undefined) | -1.3% | -5.9 | 8.6% | 1.2%
CCn1c(CN2CCOCC2)nnc1SCC(=O)Nc1ccccc1Cl | 8.6% | / | 0.9% | -1.7%
O=C(N/N=C\c1cccnc1)c1ccc(Cl)s1 | -0.8% | / | -6.1% | 4.3%
COc1ccc(NC(=O)CN(C)C(=O)c2c(-c3ccccc3Cl)noc2C)cc1 | -1.6% | / | / | -4.0%
COc1ccc(/C(C)=N/Nc2ccc(F)cc2F)c(O)c1 | -4.1% | -8.4 | -50.2% | -3.0%
COc1cc(C(=O)NCCCN2CCCC2=O)cc(Br)c1OCc1ccccc1 | 1.5% | / | / | 4.1%
N#CC1=C(N)Nc2nc3ccccc3n2C1c1ccc(F)cc1 (centres undefined) | -8.6% | 3.4 | -6.2% | -4.5%
O=C(O)CNC(=O)c1ccc(Sc2ccccc2)c([N+](=O)[O-])c1 | 1.2% | 10.2 | -0.2% | -1.6%
COC(=O)Nc1ccc(S(=O)(=O)N2CCC(C(=O)N(C)C3CCCCC3)CC2)cc1 | 13.5% | 2.3 | 1.7% | -1.6%
COC(=O)c1c(-c2ccc(S(C)(=O)=O)cc2)sc2ccc(OC)cc12 | 42.7% | / | / | -5.5%
Nc1nnc(SCC(=O)OCC(=O)Nc2ccc(Br)cc2F)s1 | -1.4% | -2.2 | -1.9% | 2.0%
O=C(C1=NN(c2ccccc2)C(=O)CC1)N1CCc2ccccc2C1 | -10.1% | / | -1.2% | 0.2%
O=C1OCCN1C(=O)[C@H]1[C@H](c2ccc(F)cc2)C(c2ccc(F)cc2)=NN1c1ccc(Br)cc1 | -18.2% | 8.6&8.9 | 5.8% | ?
CC(Sc1ccccc1)C(=O)N/N=C/c1cccnc1 (centres undefined) | -1.3% | -8.2 | 2.1% | -0.7%
CC(C)Cn1c(-c2csc3ccccc23)n[nH]c1=S | -1.5% | -1.4 | 0.1% | 1.0%
O=C(c1ccc(Cl)cc1[N+](=O)[O-])N(Cc1ccccc1)Cc1ccccc1 | / | 1.1 | 2.1% | /
CCN(CC)S(=O)(=O)c1cc(NC(=O)NCCCl)ccc1C | -15.3% | -4.4 | 0.5% | -4.8%
COc1ccc(C(=O)CSc2nnc(COc3ccccc3)n2Cc2ccco2)cc1 | 1.3% | -4.0 | 4.2% | 1.1%
CC1CCCC(NC(=O)c2ccc3c(SCC(=O)O)c4c(nc3c2)CCC4)C1C (centres undefined) | 8.0% | 2.1 | -4.3% | 2.0%
Nc1cc(N2CCCCC2)c([N+](=O)[O-])cc1Cl | 10.9% | 5.6 | -6.0% | 0.0%
CC1Cc2ccccc2N1S(=O)(=O)c1cccc(C(=O)NCCCO)c1 (centres undefined) | 0.5% | 10.4 | -3.8% | -1.3%
CCOC(OCC)c1cc2ccccc2cn1 | 14.8% | / | / | -3.4%
COc1ccccc1-n1c(-c2ccc(NS(C)(=O)=O)cc2)n[nH]c1=S | 0.8% | -4.9 | -2.6% | 2.1%
O=C1CC(N2CCN(Cc3ccccc3)CC2)C(=O)N1c1ccc2c(c1)OCCO2 (centres undefined) | 0.2% | -7.7 | -3.4% | ?
COc1cc2c(cc1OC)CN(C(=O)c1ccc(Cl)c(S(=O)(=O)N3CCCC3)c1)CC2 | -0.8% | / | / | 6.1%
CC(=O)Nc1ccc(/C=C(\C#N)C(=O)NC2CCCCC2C)cc1 (centres undefined) | -0.6% | -0.8 | 7.1% | 0.2%
O=C(NCc1ccco1)c1cccc(F)c1 | 2.7% | 8.7 | -3.4% | 2.1%
CCC(C)C(=O)Nc1ccccc1N1CCN(c2ccc(F)cc2)CC1 (centres undefined) | -11.1% | / | 23.6% | 1.9%
Cc1c(Cl)cccc1NC(=O)Nc1cnccn1 | -6.6% | / | -8.2% | -0.1%
CCC1CN(C(=O)NCc2ccc(F)cc2)c2cc(C)ccc2O1 (centres undefined) | 26.1% | / | ? | 0.1%
O=C(OCC(=O)N1CCCc2ccccc21)c1cc(Cl)ccc1O | 0.3% | / | -0.2% | -1.5%
Cc1ccc(-c2nc(N3CCOCC3)sc2C(=O)N2CCCCC2)cc1 | 6.6% | 2.9 | -6.1% | 1.8%
Cc1ccc(S(=O)(=O)N2CCN(C(=O)COc3ccc(Br)cc3)CC2)cc1 | 4.4% | / | / | -1.5%
Cc1ccc2c(c1)/C(=C/c1ccccc1F)C(=O)N2 | 4.5% | / | 3.2% | 7.0%
Cc1c(O)cc2c(c1O)C(=O)CC(c1ccccc1)O2 (centres undefined) | -12.0% | -2.3 | -10.5% | -0.9%
C[C@]12CC[C@@H]3c4ccc(O)cc4CC[C@H]3[C@@H]1C[C@@H](O)[C@@H]2O[C@@H]1O[C@H](C(=O)O)[C@@H](O)[C@H](O)[C@H]1O | 13.8% | / | -16.8% | -3.4%
CCOC(=O)c1ccc(NS(=O)(=O)c2cn(C)cn2)cc1 | -9.1% | / | -3.6% | ?
C[C@@H](NC(=O)c1nc[nH]c1C(=O)NC1CCN(C(=O)OC(C)(C)C)CC1)c1ccccc1 | -4.7% | / | / | 7.1%
COc1ccc(Cl)cc1NC(=O)CN(C)CC(=O)N1CC(=O)Nc2ccccc21 | -2.6% | / | / | -3.9%
COCCNC(=O)COc1coc(CN2CCN(Cc3ccccc3)CC2)cc1=O | 5.7% | / | 2.5% | 1.7%
O=C(OCc1nnc(-c2ccccc2)o1)c1ccco1 | -4.8% | -9.6 | 0.0% | 3.2%
Cc1ccc(S(=O)(=O)Oc2ccc(/C=C(/NC(=O)c3ccccc3)C(=O)NCCC(=O)O)cc2)cc1 | -10.5% | 6.1 | -2.8% | -1.0%
Cc1nc(CC(=O)NNS(=O)(=O)c2ccc3ccccc3c2)cs1 | 20.8% | -16.4 | -5.8% | -1.5%
Later entries
SMILES | Rango dissoc inh | GLA inh pH 4.5 | miR-21 FLuc | Rango-impB inh
Cn1c(C(C#N)C(=O)c2sc3ccccc3c2Cl)nc2ccccc21 (centres undefined) | -3.5% | 0.3 | -6.8% | -3.4%
COc1cc(/C=N/NC(=S)Nc2cccc(C(=O)O)c2)cc(OC)c1OC | -2.2% | 3.9 | -15.4% | 0.4%
CCN1C(=O)[C@@H]2[C@@H](c3ccc(-c4ccc5c(c4)OCO5)cc3)N3CCCC[C@@]3(C(=O)OC)[C@@H]2C1=O | -2.5% | / | / | -9.3%
CCn1c(CNc2ccc(F)cc2)nnc1SCC(=O)Nc1ccc(OC)cc1 | 3.8% | 2.3 | 1.8% | -0.1%
COc1ccc(C(=O)NNS(=O)(=O)c2ccccc2)cc1 | -6.6% | -0.2 | -28.6% | 11.0%
COc1ccc(C2=NN(C(=O)CCC(=O)O)C(c3cccs3)C2)cc1 (centres undefined) | -4.9% | 5.0 | -13.2% | -0.1%
COc1ccc2ccccc2c1C1CC(=O)N2CN(C3CCCCC3)CSC2=C1C#N (centres undefined) | -19.3% | -0.7 | -0.4% | 1.3%
Cc1nc(Cl)c(C(=O)Nc2cccc(F)c2)c(C)c1Cl | -10.6% | 0.8 | 3.1% | -0.4%
CNC(=S)Nc1cc(Cl)ccc1Oc1ccccc1 | 5.8% | -0.4 | -2.5% | -2.7%
COc1cc(CC(=O)NCc2cccs2)cc(OC)c1OC | 1.5% | 0.5 | -3.4% | -1.1%

Among those listed so far, these have two or more sulfur atoms:
SMILES | Rango dissoc inh | GLA inh pH 4.5 | miR-21 FLuc | Rango-impB inh
O=C(CCCSc1nnc(Nc2ccccc2F)s1)N1CCOCC1 | 27.4% | 5.4 | -33.9% | 1.0%
COC(=O)c1c(-c2ccc(S(C)(=O)=O)cc2)sc2ccc(OC)cc12 | 42.7% | / | / | -5.5%
Nc1nnc(SCC(=O)OCC(=O)Nc2ccc(Br)cc2F)s1 | -1.4% | -2.2 | -1.9% | 2.0%
CC(C)Cn1c(-c2csc3ccccc23)n[nH]c1=S | -1.5% | -1.4 | 0.1% | 1.0%
COc1ccccc1-n1c(-c2ccc(NS(C)(=O)=O)cc2)n[nH]c1=S | 0.8% | -4.9 | -2.6% | 2.1%
Cc1nc(CC(=O)NNS(=O)(=O)c2ccc3ccccc3c2)cs1 | 20.8% | -16.4 | -5.8% | -1.5%

Carrying on.
SMILES | Rango dissoc inh | GLA inh pH 4.5 | miR-21 FLuc | Rango-impB inh
C[C@]12C(=O)N(c3ccc(F)cc3)C(=O)N1[C@@H]1c3ccccc3OC[C@@H]1[C@H]2c1ccccc1 | -3.6% | / | 0.8% | 2.1%
O=C(CCc1ccccc1)Nc1cc(S(=O)(=O)N2CCOCC2)ccc1N1CCCC1 | -11.7% | / | / | 2.4%
O=C(CN1CCC(N2CCCCC2)CC1)N1CCOCC1 | / | 11.7 | -1.8% | /
CC1=NN(c2nc(-c3ccc(C#N)cc3)cs2)C(=O)C1 | -11.3% | 6.5 | 3.4% | 2.9%
O=C(NC(=S)Nc1ccc(N2CCOCC2)c(Cl)c1)c1sc2ccccc2c1Cl | -3.8% | 3.2 | -3.0% | -2.2%
CC(C)c1onc(C(=O)N2CCN(C(c3ccccc3)c3ccccc3)CC2)c1[N+](=O)[O-] | -4.5% | -0.5 | 4.0% | -1.9%
O=C(NCC1CCCCC1)c1cc(Br)ccc1Cl | 0.8% | / | -9.3% | -0.2%
Cc1c(NS(=O)(=O)c2ccc([N+](=O)[O-])cc2)c(=O)n(-c2ccccc2)n1C | -7.8% | / | -3.8% | -2.4%
CC(C)(C)c1ccccc1NC(=O)CN1C(=O)NC2(CCCCCC2)C1=O | 4.3% | / | / | 0.0%
O=C(NOC(=O)c1ccccc1)c1ccccc1 | -13.6% | 7.2 | 9.1% | 0.1%
CCOc1ccccc1NC(=O)COC(=O)Cc1ccc(-c2ccccc2)cc1 | 8.3% | 4.2 | -2.2% | 0.7%
O=C(CN1CCCC1)Nc1nc(-c2ccc3c(c2)CCN3C(=O)c2ccccc2F)cs1 | 0.6% | / | -15.4% | 1.3%
Cc1ccc(C(C(=O)NC2CCCC2)N(Cc2ccco2)C(=O)CCC(=O)Nc2ccccn2)cc1 (centres undefined) | -4.1% | -2.5 | 8.8% | -1.6%
CC(NS(=O)(=O)c1ccccc1)C1COc2ccccc2O1 (centres undefined) | 2.2% | -3.1 | -0.6% | 0.7%
Cc1cc(N2C(=O)C(O)=C(C(=O)c3ccc(C)o3)C2c2ccc([N+](=O)[O-])cc2)no1 (centres undefined) | 8.8% | / | 0.7% | 2.8%
CC1=NC(=O)C(N=Nc2ccccc2)N1c1ccccc1 (centres undefined) | 5.5% | -0.3 | -26.3% | 1.2%
COc1ccc2nc(NNC(=O)C3COc4ccccc4O3)sc2c1 (centres undefined) | -8.7% | 2.4 | -17.6% | -0.2%
CC1CCCN(S(=O)(=O)c2ccc(C(=O)NC(C)c3ccccc3)cc2)C1 (centres undefined) | 10.4% | / | / | -4.2%
CCn1c(O)c(/C=N/N=C/c2ccccc2)c2ccc(C3=NNC(=O)CC3)cc21 | ? | -7.0 | -4.3% | ?
Cc1cc(CNC(=O)COc2ccccc2)c2ccccc2n1 | -6.1% | 2.8 | -9.6% | 0.4%
Cn1c(Oc2ccc(Cl)c3cccnc23)nc2c1c(=O)n(Cc1ccccc1Cl)c(=O)n2C | / | -20.8 | -3.7% | /

These rows are one share of the data; rates above refer to the full screens.
